Screening results (PubChem BioAssay)
RecA splice inh: inhibitors of M. tuberculosis RecA intein splicing; cell-free RecA intein splicing, fluorescence; 290,000 compounds, 0.75% hits; P9WHJ3; inhibition, %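 (about 9 µM by stock and volumes)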; in the data active = inhibition above about 30%; inconclusive = no clear call, values can overlap the other calls;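 also: 0% = vehicle wells and 100% = reference inhibitor control wells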
Target sequence (P9WHJ3 whole entry, looked up, canonical isoform): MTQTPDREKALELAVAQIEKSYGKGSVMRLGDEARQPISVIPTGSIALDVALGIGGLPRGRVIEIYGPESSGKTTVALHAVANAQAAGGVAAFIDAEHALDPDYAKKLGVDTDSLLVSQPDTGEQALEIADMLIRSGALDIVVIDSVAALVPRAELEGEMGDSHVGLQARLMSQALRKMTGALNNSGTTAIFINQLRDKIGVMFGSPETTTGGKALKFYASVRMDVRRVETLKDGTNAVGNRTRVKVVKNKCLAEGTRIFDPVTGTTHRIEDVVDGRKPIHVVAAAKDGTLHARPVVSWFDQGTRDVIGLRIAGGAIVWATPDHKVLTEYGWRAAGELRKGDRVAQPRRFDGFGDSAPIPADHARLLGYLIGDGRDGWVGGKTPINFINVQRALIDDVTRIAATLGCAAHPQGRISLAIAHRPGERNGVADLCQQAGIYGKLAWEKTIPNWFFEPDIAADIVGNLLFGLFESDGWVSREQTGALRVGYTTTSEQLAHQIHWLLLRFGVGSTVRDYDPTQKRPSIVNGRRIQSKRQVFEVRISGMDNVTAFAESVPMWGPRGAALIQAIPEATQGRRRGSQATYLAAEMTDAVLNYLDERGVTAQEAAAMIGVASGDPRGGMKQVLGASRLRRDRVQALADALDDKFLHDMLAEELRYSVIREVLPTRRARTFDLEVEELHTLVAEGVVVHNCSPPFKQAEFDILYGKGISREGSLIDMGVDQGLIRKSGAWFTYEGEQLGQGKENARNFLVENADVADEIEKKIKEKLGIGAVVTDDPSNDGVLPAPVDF
Arbovirus anti: arbovirus infection inhibition; arbovirus infection cell-based antiviral screen; 200,000 compounds, 0.37% hits; inhibition, % at 10 µM;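 active = inhibition from about 30%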;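 also: bluetongue infection of BSR cells; cell survival read as ATP light after 72 h; 0% = infected wells without compound and 100% = uninfected wells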
Mtb betalactam: beta-lactam sensitization of Mtb H37Rv; M. tuberculosis H37Rv growth with meropenem, percent inhibition; hits of this screen are not shown here; inhibition, % at 25 µM; 330,000 compounds, 0.27% hits;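 active = about 74% or more and at least 40 points above the plate without the antibiotic, then above 30% in a dose series; inconclusive = first-round hits that could not be retested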;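 also: growth measured after seven days incubation then overnight dye step; 0% = bacteria only wells and 100% = bacteria with antibiotic; twin plates without the antibiotic show which effects depend on it; some results filed as inactive read as strong as hits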
Mtb growth: M. tuberculosis H37Rv growth inhibitors, H37Rv strain (AID 1626). 220,000 compounds, 0.95% hits. one-dose inhibition, % at 10 µM; IC50 in µM for titrated hits. M. tuberculosis H37Rv growth inhibition; higher % means a stronger effect;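 active = confirmed in a dose series; inconclusive = inhibition above 80% but not taken into the dose series; inactive = below 80% or under 30% at every dose of the series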;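 also: bacteria incubated seven days before Alamar blue readout; 0% = bacteria only wells and 100% = bacteria with antibiotic wells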
YopH PTP inh: blocks Yersinia enterocolitica YopH tyrosine phosphatase; inhibition, %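 (about 10 µM by stock and volumes)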; AID 898; 140,000 compounds, 0.16% hits; fluorescence Ex485/Em525;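 active = inhibition of 50% or more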;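 also: controls were vehicle for no effect and minimum signal wells for full effect; inactives centre near -20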
Arbovirus anti repeat: also measured in Arbovirus anti; calls as there; inhibition, %; measured here: 10K subset replicate screen; many hits read low in the repeat;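 first of two repeat runs on a subset; 0% = infected and 100% = uninfected wells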
Starred values were filed as active, the others as inactive; ? = inconclusive; . = no result given.

SMILES	RecA splice inh	Arbovirus anti	Mtb betalactam	Mtb growth	YopH PTP inh	others
CCCCN(C(=O)CCC(=O)Nc1cc(C)on1)C(C(=O)NC1CCCC1)c1ccc(OCC)cc1 (centres undefined)	2.1	.	9	.	.
Cc1nc2cc(-c3ccccc3)nn2c(C)c1CCC(=O)N1CCN(c2ccccn2)CC1	.	9	.	15%	-42
O=P(Cc1cc(Br)cc(Br)c1OCCO)(c1ccccc1)c1ccccc1	.	.	-2	-1%	.
CC(C)CC1CCCCC1OC(=O)C[N+]1(C)CCCCC1 (centres undefined)	-1.2	-2	2	6%	.
C/C(=N/NC(=O)c1ccc(C)nc1)c1ccc2c(c1)CCCC2	0.4	-13	8	3%	.
Cc1ccc(C2=CSC3=NCCN23)c(C)c1	-5.3	-13	-8	-5%	-40
CCCn1c(NCc2c[nH]c3ccccc23)nc2ccccc21	-1.5	19	21	-11%	4
Cc1nonc1OCCNCCNc1ccccc1[N+](=O)[O-]	0.4	-3	-2	-2%	.
CCC(OC(=O)c1nsc(Cl)c1Cl)C(=O)NCc1ccco1 (centres undefined)	2.1	9	-4	-14%	-39
CCC(=O)NC(O)C(=O)c1ccc(C)cc1 (centres undefined)	0.6	5	-3	0%	-15
Cc1ccc(C(=O)NC(C)c2ccncc2)o1 (centres undefined)	-0.1	.	-1	.	.
O=C(CNC(=O)c1ccccc1)OCc1nnc(-c2ccc(Cl)cc2)o1	-2.0	1	-1	0%	.
O=C1CC(c2ccccc2)CC(O)=C1C=NCC1CCCO1 (centres undefined)	-0.8	5	-3	2%	-46
O=C(O)c1cccc(S(=O)(=O)NCC2CCCO2)c1 (centres undefined)	-0.3	8	1	0%	-30
CSc1ccc(CNCc2ccco2)cc1	2.2	.	-2	.	.
O=C(CCN1CCOCC1)N/N=C/c1cc(Br)cc(Br)c1O	-0.3	-2	8	-6%	.
COC(=O)c1ccc(S(=O)(=O)c2ccc([N+](=O)[O-])cc2)cc1	-2.4	.	22	.	.
O=C(O)c1cc2ncc(CCO)cn2n1	-1.3	10	-8	1%	.
Cc1ccc(C(=O)NC2CCN(CC(=O)Nc3c(C)cc(C)cc3C)CC2)cc1	-0.7	.	6	.	.
O=C(CN1CCN(S(=O)(=O)c2ccc(Cl)cc2)CC1)NC(=O)NC1CCCCC1	-6.9	6	?	-6%	-22
Cc1cc(=O)oc2c(C)c(OCC(=O)NC3CCN(Cc4ccccc4)CC3)ccc12	-1.2	.	2	.	.
O=C(COc1ccccc1F)Nc1ccc2c(c1)OCCO2	1.6	.	-5	.	.
COc1ccccc1Oc1nnnn1-c1ccc(C(N)=O)cc1	-2.5	4	-14	-3%	-17
Cc1cc(C)nc(NC(=O)COc2cc(Cl)cc(Cl)c2)n1	0.1	-5	-5	3%	-6
CCOC(=O)c1c(NC(=O)COC(=O)c2nc(Cl)ccc2Cl)sc(C(=O)NC)c1C	-1.1	.	-10	.	.
O=C(c1cccc(Oc2ccccc2)c1)N1CCOCC1	2.9	.	1	.	.
COc1cc(/C=N\Nc2ccc([N+](=O)[O-])cc2)ccc1OCC(=O)Nc1ccc(C)c(C)c1	-2.8	-12	.	.	-7
O=C(Nc1ccccc1)C1CC=CCC1C(=O)OCC1CCCO1 (centres undefined)	3.7	0	12	4%	-39	Arbovirus anti repeat=3
COc1ccc(CC(C)N2CCN(Cc3ccccc3)CC2)c(OC)c1 (centres undefined)	0.8	14	-12	-1%	-58
COc1ccc(/C=N\NC(=O)c2cccc(Br)c2)c(OC)c1	-0.2	-11	10	60%	.

In the list so far, 2 have a COOH group.
SMILES	RecA splice inh	Arbovirus anti	Mtb betalactam	Mtb growth	YopH PTP inh	others
O=C(O)c1cccc(S(=O)(=O)NCC2CCCO2)c1 (centres undefined)	-0.3	8	1	0%	-30
O=C(O)c1cc2ncc(CCO)cn2n1	-1.3	10	-8	1%	.

Next records follow:
SMILES	RecA splice inh	Arbovirus anti	Mtb betalactam	Mtb growth	YopH PTP inh	others
CCCOc1ccc(/C=N/NC(=O)C2CC2)c(OCCC)c1	-1.6	.	-5	.	.
O=C(N/N=C/c1cccc(Oc2ccccc2)c1)c1cc[n+]([O-])cc1	0.7	0	80	73%	.
CN(Cc1c(F)cccc1Cl)S(=O)(=O)c1cccs1	0.7	.	-6	.	.
COc1ccc(-c2csc(NC(=S)NC(=O)c3ccco3)n2)cc1	0.6	-18	7	-8%	.
CCOC(=O)Cc1nnc(NC(=O)CCc2ccccc2)s1	0.1	.	-1	.	.
O=C(N/N=C/C=C/c1ccccc1[N+](=O)[O-])c1cc(-c2ccccc2)n[nH]1	-0.5	6	91	?	-18
CN(Cc1ccccc1)C(=O)c1nc2ccccn2c1CN1CCc2sccc2C1	9.3	-5	-8	0%	.
O=C(C1=C[C@@H](c2coc3ccccc3c2=O)C[C@@H](OCc2ccc(CO)cc2)O1)N1CCOCC1	-2.4	2	2	-6%	.
Cc1ccc(S(=O)(=O)N2CCN(C(=O)C3CCCO3)CC2)cc1C (centres undefined)	2.2	.	-17	.	.
COc1ccc(-c2ccnc3nc(Sc4ncc(C(F)(F)F)cc4Cl)nn23)cc1	3.2	-2	-11	11%	-23
CC(=O)Nc1ccc(S(=O)(=O)N2CCN(c3nc4ccccc4n3CC(C)C)CC2)cc1	4.2	.	6	.	.
CCn1nnnc1NCc1ccc(OCc2c(F)cccc2Cl)c(OC)c1	-0.2	-2	-13	7%	.
CCOC(=O)/C=C(\C)N1N=C(c2ccccc2)CC1c1ccccc1 (centres undefined)	1.7	-1	2	33%	.
CCOc1ncccc1C(=O)OCC(=O)Nc1cccc(C(C)=O)c1	0.3	4	.	3%	-34
COC(=O)CCSc1cc([N+](=O)[O-])cc2c1c(C1OCCS1)nn2-c1ccccc1 (centres undefined)	-0.7	9	-8	-2%	-6
CC(C)/C=C/C(=O)N1CCC(N2CCC(C(=O)N3CCOCC3)CC2)CC1	-1.2	5	-1	2%	.
COc1cccc(OCc2nnc(-c3cccs3)o2)c1	-1.8	20	95	72%	.
O=C(Nc1sc2c(c1C(=O)O)CCC2)c1ccccc1F	1.1	.	8	.	.
CCOC(=O)CCc1c(C)c2ccc(OCC)c(C)c2oc1=O	-0.9	-1	-1	-14%	10
CCOP(=O)(c1ccccc1)C(O)c1ccc(Br)cc1 (centres undefined)	-4.1	4	-6	-1%	-15
CC1CCN(C(=O)c2cc3ccccc3cc2O)CC1	-1.9	.	-10	.	.
O=C(Cn1ccc2ccccc2c1=O)NCC(=O)N1CCC2(CC1)OCCO2	4.5	-3	-1	-3%	.
COc1ccc(NC(=O)O/N=C/c2ccccc2Cl)cc1	.	.	81	2%	.
Cc1ccc(-c2csc(Nc3ccc(C(=O)O)cc3)[n+]2Cc2ccccc2)cc1	-0.1	0	5	9%	.
Cc1nnsc1C(=O)Nc1ccc(Cl)cc1	.	-10	-1	-1%	-17
O=C(NC1CCCc2ccccc21)C1CCN(C(=O)c2sccc2-n2cccc2)CC1 (centres undefined)	5.1	-5	1	3%	-22	Arbovirus anti repeat=-3
Cc1ccc(-c2nc3cc(Br)cnc3nc2-c2ccc(C)cc2)cc1	1.7	-28	53	6%	.
Cc1ccc2c(C)c(C(=O)N(Cc3ccccc3)C3CCS(=O)(=O)C3)oc2c1 (centres undefined)	5.5	.	12	.	.
Cc1occc1C(=O)N/N=C/c1ccccc1[N+](=O)[O-]	1.1	.	1	-5%	.
CCOC(=O)N1CCN(c2c(N3CC=C(c4ccccc4)CC3)c(=O)c2=O)CC1	0.1	6	-4	6%	-38
N#Cc1ccc(OCC(=O)N/N=C2/CC(c3ccccc3)Oc3ccccc32)cc1 (centres undefined)	5.1	-11	2	10%	-10
CCOc1cc(C(=O)NC(C)C2CC3CCC2C3)cc(OCC)c1OCC (centres undefined)	0.3	.	6	.	.
O=C(NCc1ccncc1)C1CCCN(S(=O)(=O)Cc2ccccc2)C1 (centres undefined)	0.9	5	-2	4%	-42
CC(C)N(Cc1nc(-c2ccccc2)no1)C(=O)c1ccc(Br)o1	8.5	-8	3	5%	-5
Cc1nn2c(N3CCOCC3)cc(C(C)(C)C)nc2c1-c1ccccc1	-2.3	.	?	.	.
Cc1cccc(-c2onc3ccc(C4(C)OCCO4)cc23)c1	7.6	3	7	.	-10
Cc1cc(C(=O)CCC(=O)NC(C)c2ccc(S(N)(=O)=O)cc2)c(C)s1 (centres undefined)	-2.2	.	-8	.	.
CCOc1ccc(C(=O)N/N=C/c2cc([N+](=O)[O-])cs2)cc1	1.3	1	99	?	.
Cc1ccc(S(=O)(=O)Nc2ccc3c(c2)OCCO3)c(C)c1NS(C)(=O)=O	-2.7	.	1	.	.
C/C(=N\Nc1ncc(Cl)cc1Cl)c1ccc2c(c1)OCO2	-0.4	-9	4	-4%	.
O=C(NNS(=O)(=O)c1ccc(Cl)cc1)c1cnn(-c2ccccc2)c1-n1cccc1	.	-3	?	15%	-20
Cc1ccccc1NC1=NC(=S)N(c2ccccc2)C12CCCCC2	8.9	-13	8	5%	-31
N=c1n(Cc2ccccc2)c2ccccc2n1CC(O)c1ccco1 (centres undefined)	0.9	4	-7	2%	-7
Cc1nc(N2CCOCC2)c(C#N)c(C)c1Br	1.2	2	-5	8%	7
Nc1cc2ccccc2oc1=O	-2.4	1	12	5%	11
CN(C)S(=O)(=O)c1ccc(N2CCOCC2)c(C(=O)O)c1	1.3	5	-16	-2%	-32
CCn1c(-c2cccnc2Cl)nc2ccccc21	0.5	9	-2	-10%	-38
NC(=O)C1CCN(CCC(=O)Nc2ccc(F)c(F)c2)CC1	-1.9	.	-1	.	.
COC(=O)C1CCN(C(=O)CCC2CCCCC2)CC1	3.9	1	-7	0%	-10
CSc1ccc(S(=O)(=O)N2CCC(C(=O)Nc3ccc(NC(C)=O)cc3)CC2)cc1	3.0	.	-1	.	.
COc1ccc(CNC2CCCCC2)cc1	-2.5	-2	-4	0%	-17
COCCOC(=O)c1c(C)oc2ccc(OC(=O)COc3c(F)c(F)c(F)c(F)c3F)cc12	3.8	-1	94	67%	-17
O=C(OCC(=O)c1ccccc1Cl)c1cnccn1	-5.1	2	4	10%	-31
Cc1ccc(C2CC(=O)c3cnc(NC(=O)c4ccco4)nc3C2)cc1 (centres undefined)	2.2	8	.	7%	-29
CCn1c(SCC(=O)N/N=C\c2ccccc2OCC(=O)O)nnc1-c1ccc(Cl)cc1	3.7	.	1	-8%	.
Cc1nc(NCc2ccccc2)[nH]c(=O)c1CCC(C)C	0.3	0	-4	5%	-17
Cc1cc(CNC(=O)CC2C(=O)NCCN2Cc2ccccc2)nn1C (centres undefined)	-1.2	.	3	.	.
O=C(CSCc1nc2ccccc2[nH]1)Nc1ccc(Oc2ccccc2)cc1	1.4	-26	86	23µM*	-25

Molecules above that have an aryl methoxy group, in the order listed:
SMILES	RecA splice inh	Arbovirus anti	Mtb betalactam	Mtb growth	YopH PTP inh	others
COc1ccccc1Oc1nnnn1-c1ccc(C(N)=O)cc1	-2.5	4	-14	-3%	-17
COc1cc(/C=N\Nc2ccc([N+](=O)[O-])cc2)ccc1OCC(=O)Nc1ccc(C)c(C)c1	-2.8	-12	.	.	-7
COc1ccc(CC(C)N2CCN(Cc3ccccc3)CC2)c(OC)c1 (centres undefined)	0.8	14	-12	-1%	-58
COc1ccc(/C=N\NC(=O)c2cccc(Br)c2)c(OC)c1	-0.2	-11	10	60%	.
COc1ccc(-c2csc(NC(=S)NC(=O)c3ccco3)n2)cc1	0.6	-18	7	-8%	.
COc1ccc(-c2ccnc3nc(Sc4ncc(C(F)(F)F)cc4Cl)nn23)cc1	3.2	-2	-11	11%	-23
CCn1nnnc1NCc1ccc(OCc2c(F)cccc2Cl)c(OC)c1	-0.2	-2	-13	7%	.
COc1cccc(OCc2nnc(-c3cccs3)o2)c1	-1.8	20	95	72%	.
COc1ccc(NC(=O)O/N=C/c2ccccc2Cl)cc1	.	.	81	2%	.
COc1ccc(CNC2CCCCC2)cc1	-2.5	-2	-4	0%	-17

An excerpt; rates above refer to the full screens.
